# Bioassay records deposited in PubChem by ICCB-Longwood Screening Facility, Harvard Medical School.
# Anaer choline gr – inhibitors of anaerobic choline-dependent gram-negative bacterial growth; Gram-negative bacterium anaerobic choline minimal medium, absorbance growth; active compounds read low; many inactives read as strong as hits in the columns shown; calls only; 55,000 tested, 0.2% active; AID 1963822;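 active = growth z-score on choline under -2 at 7 or 20 h with little or no fall on glycerol, limits in tiers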;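 also: stock transfer was 300 nL into about 50 µL; the organism is E. coli; final concentration not given here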
# Anaer choline gr early – second read-out of Anaer choline gr, no call of its own (marks repeat the call); z-score; measured here: choline growth z-score, timepoint 1;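 score of optical density at 7 h as mean of two plates; lower means less growth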
# The depositor's hits bear a star; i = inactive; & = joins results of further samples. Some of the compounds tested. The share of hits here may be higher or lower than overall.
SMILES,Anaer choline gr,Anaer choline gr early
Cc1cccc(C(=O)NCN2CCN(c3ccccc3C#N)CC2)c1,i,0.09
CC(Oc1ccccc1)c1nc(-c2ccc3c(c2)ncn3CCC(=O)N2CCCC2)no1 (stereo unspecified),i,0.96
CCCN1C(=O)c2ccccc2Sc2cc(-c3noc(-c4cnccn4)n3)ccc21,i,2.1
CC(Sc1nc2c(c(=O)[nH]1)CCCC2)C(=O)Nc1ccccc1Cl (stereo unspecified),i,1.5
O=c1c2ccccc2oc2cc(O)cc(O)c12,i,-0.85
CC1CS(=O)(=O)CCN1N=Cc1ccc([N+](=O)[O-])o1 (stereo unspecified),i,-2
Cc1cc(C)cc(C(=O)N2CCCC(C(=O)NCc3ccc(Cl)cc3)C2)c1 (stereo unspecified),i,-0.63
Cc1oc2ncn(Cc3ccc(Cl)cc3)c(=O)c2c1C,i,1.5
O=S(=O)(NC1CCCCCC1)c1ccc(-c2nnc(C3CCC3)o2)o1,i,0.16
CC(C)C(NS(=O)(=O)c1ccc2c(c1)CCCC(=O)N2)C(=O)NC1CCCCC1 (stereo unspecified),i,0.43
COc1ccc(S(=O)(=O)N2CCC(NC(=O)NCc3ccc(C)cc3)CC2)cc1,i,-1.4
C#CCn1c(C2CC(=O)N(c3cccc(Cl)c3)C2)nc2ccccc21 (stereo unspecified),i,-1.8
CCCCS(=O)(=O)N1CCCC(c2nc(CNC(C)=O)cs2)C1 (stereo unspecified),i,-0.09
Cn1c(=O)c2nc(SCCC(=O)Nc3ccc(Cl)cc3)n(C)c2n(C)c1=O,i,0.33
CCN1CCN(c2nc3ncn(CC(=O)N4CCN(c5ccc(F)cc5)CC4)c(=O)c3s2)CC1,i,-0.09
Cc1ccc(C2CCCN2C(=O)c2cc(-c3ccc4c(c3)OCO4)on2)cc1 (stereo unspecified),i,-0.61
CN1CCN(c2c3c(nc4nc(-c5ccccc5)nn24)CCCC3)CC1,i,0.13
O=C(CSc1nnc2ccc(-c3ccc4c(c3)OCO4)nn12)N1CCCC1,i,-0.44
CCC1c2cccn2-c2sc3c(c2CN1C(=O)NCCC(C)C)CCCC3 (stereo unspecified),i,0.16
Cn1cc(C(=O)N2CCCCC2)c2[nH]c(=O)n(-c3ccc(F)cc3)c(=O)c21,i,-0.74
CCC(C)NC(=O)c1nc(-c2ccc(N3CCCC3)cc2)no1 (stereo unspecified),i,0.61
O=C1CSC(c2cn(-c3ccccc3)nc2-c2ccc(Cl)cc2)N1Cc1cccnc1 (stereo unspecified),i,0.16
CC(C)n1cnc2c(NCc3ccccc3)nc(NCCO)nc21,i,0.26
O=C(O)c1cc(=O)c2ccc(Cl)cc2[nH]1,i,0.45
Cc1nn(C(C)C(=O)N2CCOCC2)c(=O)c2c(-n3cccc3)n(-c3ccccc3)nc12 (stereo unspecified),i,-2.4
CCOc1cc(CNCCNC(=O)c2nonc2N)cc(Br)c1OCC,i,0.23
COc1ccc(C2CC(=O)c3cnc4c(-c5ccc(Cl)cc5)c(C)nn4c3C2)c(OC)c1 (stereo unspecified),i,-0.36
Cc1ccccc1NC(=O)C(C)Sc1nc2c(c(=O)[nH]1)CCCC2 (stereo unspecified),i,1
CCOC(=O)C1CCCN(C(=O)Cn2c(=O)c3ccccc3n3c(=S)sc(-c4ccc(Cl)cc4)c23)C1 (stereo unspecified),i,-0.55
Cn1c(=O)[nH]c(=O)c2cnc(-c3ccc(Cl)cc3)nc21,i,0.47
COc1ccccc1C(=O)NCC(c1ccc(Br)cc1)c1c[nH]c2ccccc12 (stereo unspecified),i,1.7
COc1ccc(NC(=O)CSc2nc3ccccc3n2Cc2cccnc2)cc1,i,0.67
CCCc1nnc2sc(COc3ccccc3OC)nn12,i,-1.2
COc1cc(Br)c(CC2C(=O)N(C)c3ccccc32)cc1OC (stereo unspecified),i,-1.1
CCOCCCN1C(=O)c2c(NC(C)=O)c3cc(OC)ccc3n2CC1(C)C(=O)NC1CCCC1 (stereo unspecified),i,-1.7
O=C(NCCc1nc(-c2ccccc2)n[nH]1)Nc1ccccc1Br,i,-2.4
CN[C@H](CC(C)C)C(=O)N[C@H]1C(=O)N[C@@H](CC(N)=O)C(=O)N[C@H]2C(=O)N[C@H]3C(=O)N[C@H](C(=O)N[C@H](C(=O)O)c4cc(O)cc(O)c4-c4cc3ccc4O)[C@H](O)c3ccc(c(Cl)c3)Oc3cc2cc(c3O[C@@H]2O[C@H](CO)[C@@H](O)[C@H](O)[C@H]2O[C@H]2C[C@](C)(N)[C@H](O)[C@H](C)O2)Oc2ccc(cc2Cl)[C@H]1O,i,-2.7
Cc1ccc(Nc2nc(C)c3nc(C)n(-c4ccc(C)cc4)c3n2)cc1,i,0.85
Cc1onc(-c2ccccc2Cl)c1C(=O)Nc1cc2c(cc1SC(C)C)n(C)c(=O)n2C,i,0.55
COc1ccc(-n2c(C)nc3c(C)nc(Nc4ccccc4)nc32)cc1,i,0.41

# Continued (two carried over from the part before).
SMILES,Anaer choline gr,Anaer choline gr early
Cc1onc(-c2ccccc2Cl)c1C(=O)Nc1cc2c(cc1SC(C)C)n(C)c(=O)n2C,i,0.55
COc1ccc(-n2c(C)nc3c(C)nc(Nc4ccccc4)nc32)cc1,i,0.41
Cn1nc(C(=O)N2CCCC(C(=O)NC3CC3)C2)c2c1CCN(C(=O)c1ccc(F)cc1)C2 (stereo unspecified),i,-0.43
O=C(CN1CCN(Cc2ccccc2)C(=O)C1=O)NCc1ccc2c(c1)OCO2,i,-0.4
Cc1c(Nc2ncccc2C(=O)O)cccc1C(F)(F)F,i,0.38&0.72
COc1ccc(NC(=O)N2CCN(c3ccc(=O)n(-c4ccccc4)n3)CC2)cc1OC,i,0.05
COc1cccc(NC(=O)c2c(O)c3ccccc3[nH]c2=O)c1,i,0.91
CN(C1CCCCC1)C1CCN(S(=O)(=O)c2ccc3[nH]c(=O)ccc3c2)CC1,i,-0.9
CCN(CC)C(=O)c1ccc(-c2nc3cc(NS(=O)(=O)c4ccccc4)ccc3n2C)cc1,i,0.39
CC1Oc2ccc(-c3csc(NC(=O)c4cccnc4)n3)cc2NC1=O (stereo unspecified),i,-0.43
O=C(NC1CCCCC1)c1ccc(Nc2ccnc(-c3cccc(F)c3)n2)cc1,i,-0.29
Cc1ccc(C)c(NS(=O)(=O)c2cn(C)c(C)n2)c1,i,0.3
CCOCCCNC1=NCCNC12CCCCC2,i,0
CC[C@H]1OC(=O)[C@H](C)[C@@H](O[C@H]2C[C@@](C)(OC)[C@@H](O)[C@H](C)O2)[C@H](C)[C@@H](O[C@@H]2O[C@H](C)C[C@H](N(C)C)[C@H]2O)[C@](C)(O)C[C@@H](C)/C(=N\OCOCCOC)[C@H](C)[C@@H](O)[C@]1(C)O,i,-2.5
O=C(c1ccc(Br)cc1)N1CCC(c2nc(-c3ccc(F)cc3)no2)CC1,i,-0.14
COCCCNC(=O)CN1C(=O)c2cccnc2Oc2ccccc21,i,1.2
CCCCc1c(C)[nH]n(-c2nc(C)c(C(=O)Nc3cccc(C)c3C)s2)c1=O,i,0.19
CCc1ccc(NC(=O)NCc2nnc(C(=O)Nc3ccc(C)cc3)s2)cc1,i,-1.1
O=C(O)c1cc(N2CCN(c3ccccc3Cl)CC2)nc2ccc(NC(=O)C3CCCC3)cc12,i,0.4
CN(C)c1ccc(NC(=O)c2cn(C)c3c(=O)n(-c4ccc(Cl)cc4)c(=O)[nH]c23)cc1,i,0.53
CC1(C)C(=O)N(CC(=O)Nc2ccc3c(c2)OCO3)c2ccccc21,i,-0.79
COc1ccc(C2C3=C(CC(C)(C)CC3=O)Nc3c(C(=O)Nc4ccc(C)cc4)cnn32)cc1 (stereo unspecified),i,1.1

# In the list so far, these contain a COOH group.
SMILES,Anaer choline gr,Anaer choline gr early
O=C(O)c1cc(=O)c2ccc(Cl)cc2[nH]1,i,0.45
CN[C@H](CC(C)C)C(=O)N[C@H]1C(=O)N[C@@H](CC(N)=O)C(=O)N[C@H]2C(=O)N[C@H]3C(=O)N[C@H](C(=O)N[C@H](C(=O)O)c4cc(O)cc(O)c4-c4cc3ccc4O)[C@H](O)c3ccc(c(Cl)c3)Oc3cc2cc(c3O[C@@H]2O[C@H](CO)[C@@H](O)[C@H](O)[C@H]2O[C@H]2C[C@](C)(N)[C@H](O)[C@H](C)O2)Oc2ccc(cc2Cl)[C@H]1O,i,-2.7
Cc1c(Nc2ncccc2C(=O)O)cccc1C(F)(F)F,i,0.38&0.72
O=C(O)c1cc(N2CCN(c3ccccc3Cl)CC2)nc2ccc(NC(=O)C3CCCC3)cc12,i,0.4

# The results go on:
SMILES,Anaer choline gr,Anaer choline gr early
O=C(O)c1cnn2cc(Br)cnc12,i,0.69
CC1Cc2ccccc2N1C(=O)c1ccc(=O)n(CC(=O)NCC2CCCO2)n1 (stereo unspecified),i,0.16
COc1ccc(-c2cc(C(=O)N3CCCC3c3ccc(Cl)cc3)no2)cc1 (stereo unspecified),i,1.4
O=C(NC1CCN(c2nnc3ccccn23)CC1)c1cc2c(s1)CCCC2,i,1.1
COc1ccc(NS(=O)(=O)c2ccc3oc(=O)c4ncn(C)c4c3c2)cc1Cl,i,0.22
CCN1CCCc2cc(C(=O)NC3CC3)sc21,i,0.48
CCCCc1ccc(N2C(=O)CC(c3ccc(OC)c(OC)c3)CC2=O)cc1,i,1
Cc1nnc(NC(=O)CSc2nc(=O)[nH]c3c2CCC3)s1,i,-0.91
Cc1noc2c1C(c1ccc(Br)c(F)c1)C1=C(CC(c3ccc(O)cc3)CC1=O)N2 (stereo unspecified),i,0.04
Cc1cc(N2CCC(C)CC2)n2nc(C(F)(F)F)c(-c3ccc(F)cc3)c2n1,i,-0.03
O=c1c(S(=O)(=O)c2cccc(F)c2)c[nH]c2cc(F)c(Cl)cc12,i,0.21
Cc1ccc(CSc2nnc3n(CCCOC(C)C)c(=O)c4cc(Cl)ccc4n23)cc1,i,-0.17
CCOc1cc(-c2ccccc2)nc2ccc(NS(=O)(=O)c3ccc(NC(C)=O)cc3)cc12,i,-0.77
CC1(C(=O)NC2CCCC2)Cn2c(cc3ccccc32)C(=O)N1CCN1CCOCC1 (stereo unspecified),i,-1.8
COC(=O)c1ccccc1NC(=O)CSc1nc2cc(-c3ccccc3)sc2c(=O)n1C,i,-1.1
O=C(c1ccc(NC(=O)N2CCCCc3ccccc32)cc1)N1CCN(c2ccc(Cl)cc2)CC1,i,-0.81
CC(C)Cc1cc(-c2nnc3sc(-c4ccc(N(C)C)cc4)nn23)n[nH]1,i,0.41
COc1ccc(CNS(=O)(=O)c2c(C)sc(C)c2-c2ccno2)cc1,i,-1.2
CC(C)OC(=O)CSc1nc2cc(-c3ccccc3)sc2c(=O)n1C,i,-0.56
Cc1[nH]nc(-c2c(C)sc(C)c2S(=O)(=O)N2CCc3ccccc3C2)c1C,i,-0.06
COc1cccc(CC(=O)Nc2ccc3nc(NS(C)(=O)=O)sc3c2)c1,i,-0.67
Cc1nc(CN2C(=O)COc3cc(S(=O)(=O)N4CCc5ccccc5C4)c(C)cc32)no1,i,-1.2
Cc1ccc2c(c1)N(C(=O)CCC(=O)NCCc1ccc(S(N)(=O)=O)cc1)CC(C)O2 (stereo unspecified),i,0.46
O=C(Cn1nc2c(N3CCSCC3)nccn2c1=O)NCCC1=CCCCC1,i,-0.52
O=C(Cn1cnc2c(-c3ccccc3)csc2c1=O)NC1CCCC1,i,0.05
COc1ccc(NC(=O)C2CCCN(S(=O)(=O)c3cc(-c4noc(C)n4)sc3C)C2)c(OC)c1 (stereo unspecified),i,1.7
Cn1nc(-c2nc(C3CC3)no2)c2c1CCN(S(=O)(=O)c1cccc(Cl)c1)C2,i,-1.2
Cc1cc2n(n1)CCC(=O)N2C(C)C(=O)NCc1ccccc1 (stereo unspecified),i,-0.75
Cc1nc(N2CCN(c3ccccn3)CC2)nc2c1C(=O)CC(C)(C)C2,i,0.9
COc1ccc(OC)c(C(=O)c2c(N)c(-c3nc(-c4ccc5c(c4)OCO5)cs3)c3ccccn23)c1,i,0.25
O=C(NC1CCCCC1)c1cc2occc2c(Nc2ccc(Cl)cc2)n1,i,1.4
Cc1cccc(NC(=O)CCc2nc(CSc3nc(-c4ccccc4)cs3)no2)c1C,i,0.45
Cc1cc(-c2cc(S(=O)(=O)NC3CCCCC3)c(C)s2)on1,i,0.64
O=C(NC1CCCC1)c1ccc(-c2cccc(F)c2)nc1,i,0.48
Cc1cccc(NC(=O)Cn2nc(-c3ccccc3)c3cc(Cl)ccc32)c1C,i,-0.97
c1ccc(-c2noc(-c3ccc(NC4CCCCC4)nn3)n2)cc1,i,0.55
CN(CCc1noc(COc2ccc(Cl)cc2)n1)C(=O)NCC1CCCO1 (stereo unspecified),i,-0.64
Cn1c(=O)c2ccc(C(=O)NC3CCCCC3)cc2n2c(SCC(N)=O)nnc12,i,-0.46
O=C1COc2cc(S(=O)(=O)N3CCC(C(=O)N4CCc5ccccc54)CC3)c(Cl)cc2N1,i,0.08
CCCn1c(=O)c2c(C(=O)NCC3CCCO3)cc(=O)n(CCC)c2n(C)c1=O (stereo unspecified),i,0.28
Cc1cccc(NC(=O)Cn2cnc3oc(C)c(C)c3c2=O)c1C,i,0
Cc1ccc(C(=O)Nc2ccc(-n3cnnn3)cc2)cc1,i,1
COc1ccc(OC)c(S(=O)(=O)Nc2ccc3nnc(-c4cccc(Br)c4)n3n2)c1,i,0.93
O=C(CCc1nc(CS(=O)(=O)c2ccccc2)no1)NCCC1=CCCCC1,i,1
O=C(NCC1CC1)C1CCN(c2cnc(N3CCCC3)nc2)CC1,i,0.17
CC1=C(c2ccc(F)cc2)S(=O)(=O)N(CC(=O)NCc2ccc(OC(C)C)cc2)C1=O,i,-0.66
COc1cc(=O)n(C)c2c(OC(C)=O)cccc12,i,-1.6

# Profiles as entered above. Order of values: Anaer choline gr | Anaer choline gr early
# Profile of COc1ccc(OC)c(S(=O)(=O)Nc2ccc3nnc(-c4cccc(Br)c4)n3n2)c1 = i | 0.93
# Profile of Cc1cccc(NC(=O)Cn2cnc3oc(C)c(C)c3c2=O)c1C = i | 0
# Profile of Cc1ccc(C(=O)Nc2ccc(-n3cnnn3)cc2)cc1 = i | 1
# Profile of CC1=C(c2ccc(F)cc2)S(=O)(=O)N(CC(=O)NCc2ccc(OC(C)C)cc2)C1=O = i | -0.66
